# Yeast UUG start = modulators of start codon recognition fidelity in yeast; activity score, % at 18.7 µM; AID 602363; S. cerevisiae UUG-firefly luciferase reporter, luminescence/redox ratio; 350,000 tested, 0.13% active;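 active = replicate mean at a twofold rise or more, about +100% in these data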;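 also: firefly luciferase made from a UUG start codon reports start codon fidelity; reporter light over untreated wells divided by growth signal over untreated wells; some hits fall short of that in this replicate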
# Env fusion inh = HIV envelope-mediated fusion inhibition; AID 651610; inhibition, % at 12.3 µM; HeLa-JRFL Env/CEM21 cell fusion, luciferase; 360,000 tested, 1.1% active;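 active = mean replicate inhibition score of at least 50 and every replicate individually at or above 50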;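 also: 0% = plate neutral controls and 100% = maraviroc near 300 nM; one replicate is shown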
# * marks the source's active call; other numbers are inactive results; [ ] = dose if it differs, or a comment.
SMILES,Yeast UUG start,Env fusion inh
C[C@@H]1CN([C@H](C)CO)S(=O)(=O)c2ccc(-c3cncnc3)cc2O[C@@H]1CN(C)Cc1cncnc1,-16,-2[16.7 µM]
C[C@@H]1CCCCO[C@@H](CN(C)S(=O)(=O)c2ccc(Cl)cc2)[C@H](C)CN([C@@H](C)CO)C(=O)c2cc(NC(=O)NC3CCCCC3)ccc2O1,-3,26[16.7 µM]
CO[C@@H]1CN(C)C(=O)c2cc(NS(=O)(=O)c3cn(C)cn3)ccc2OC[C@@H](C)NC[C@@H]1C,-5,7[16.7 µM]
C/C=C/c1ccc2c(c1)O[C@@H](CN(C)Cc1ccccc1F)[C@@H](C)CN([C@H](C)CO)S2(=O)=O,-15,16[16.7 µM]
COc1cccc(-c2cn(CC[C@H]3CC[C@@H](NC(=O)CN(C)C)[C@@H](CO)O3)nn2)c1,-4,-20[16.7 µM]
Cc1noc(C)c1S(=O)(=O)N(C)C[C@H]1Oc2ccc(NC(=O)CCCCCC(=O)Nc3ccccc3N)cc2CC(=O)N([C@H](C)CO)C[C@H]1C,25,10[16.7 µM]
Cc1noc(C)c1S(=O)(=O)N(C)C[C@@H]1OCCCC[C@H](C)Oc2ccc(NC(=O)Cc3ccccc3)cc2C(=O)N([C@@H](C)CO)C[C@H]1C,22,-5[16.7 µM]
Cc1noc(C)c1S(=O)(=O)Nc1ccc2c(c1)C(=O)N([C@@H](C)CO)C[C@@H](C)[C@@H](CN(C)C(=O)CCC(F)(F)F)OCCCC[C@@H](C)O2,22,13[16.7 µM]
C[C@@H]1CN([C@H](C)CO)S(=O)(=O)c2ccc(C#Cc3ccc(F)cc3)cc2O[C@@H]1CN(C)CC1CC1,8,7[16.7 µM]
C[C@@H]1CN([C@@H](C)CO)C(=O)c2cc(NC(=O)CCCN(C)C)ccc2O[C@@H]1CN(C)S(=O)(=O)c1cn(C)cn1,-9,4[16.7 µM]
CC(C)NC(=O)Nc1ccc2c(c1)C(=O)N(C)[C@H]1CC[C@H](CC(=O)NCC3CCCCC3)O[C@H]1CO2,14,6[16.7 µM]
CCCC#Cc1ccc2c(c1)O[C@@H](CN(C)C(=O)C1CCC1)[C@H](C)CN([C@@H](C)CO)S2(=O)=O,-7,22[16.7 µM]
Cc1ccc(S(=O)(=O)NCC[C@H]2CC[C@H](NC(=O)Nc3ccccc3F)[C@H](CO)O2)cc1,0,38[16.7 µM]
CCCC(=O)Nc1ccc2c(c1)C(=O)N(C)C[C@@H](OC)[C@@H](C)CN[C@@H](C)CO2,-12,4[16.7 µM]
C[C@@H]1CN([C@@H](C)CO)C(=O)c2cccc(NC(=O)C3CCOCC3)c2O[C@@H]1CN(C)C(=O)Nc1ccc(C(F)(F)F)cc1,15,1[16.7 µM]

# An excerpt from above in order of their number in Yeast UUG start, high to low:
SMILES,Yeast UUG start,Env fusion inh
Cc1noc(C)c1S(=O)(=O)N(C)C[C@H]1Oc2ccc(NC(=O)CCCCCC(=O)Nc3ccccc3N)cc2CC(=O)N([C@H](C)CO)C[C@H]1C,25,10[16.7 µM]
Cc1noc(C)c1S(=O)(=O)Nc1ccc2c(c1)C(=O)N([C@@H](C)CO)C[C@@H](C)[C@@H](CN(C)C(=O)CCC(F)(F)F)OCCCC[C@@H](C)O2,22,13[16.7 µM]
C[C@@H]1CN([C@@H](C)CO)C(=O)c2cccc(NC(=O)C3CCOCC3)c2O[C@@H]1CN(C)C(=O)Nc1ccc(C(F)(F)F)cc1,15,1[16.7 µM]
CO[C@@H]1CN(C)C(=O)c2cc(NS(=O)(=O)c3cn(C)cn3)ccc2OC[C@@H](C)NC[C@@H]1C,-5,7[16.7 µM]
CCCC#Cc1ccc2c(c1)O[C@@H](CN(C)C(=O)C1CCC1)[C@H](C)CN([C@@H](C)CO)S2(=O)=O,-7,22[16.7 µM]
C[C@@H]1CN([C@@H](C)CO)C(=O)c2cc(NC(=O)CCCN(C)C)ccc2O[C@@H]1CN(C)S(=O)(=O)c1cn(C)cn1,-9,4[16.7 µM]
C/C=C/c1ccc2c(c1)O[C@@H](CN(C)Cc1ccccc1F)[C@@H](C)CN([C@H](C)CO)S2(=O)=O,-15,16[16.7 µM]

# Later entries.
SMILES,Yeast UUG start,Env fusion inh
CCNC(=O)C[C@H]1CC[C@@H]2[C@H](COc3ccc(NC(=O)c4ccc(F)cc4)cc3C(=O)N2C)O1,0,-12[16.7 µM]
CCCNC(=O)N1C[C@@H](O)COC[C@@H]2O[C@H](CC(=O)N[C@H]3CCN(Cc4ccccc4)C3)CC[C@H]21,-2,-10[16.7 µM]
CN(C)C(=O)C[C@H]1C[C@@H]2c3cc(NC(=O)NC4CCCCC4)ccc3O[C@@H]2[C@H](CO)O1,-5,75*[16.7 µM]
C[C@H]1CN([C@@H](C)CO)C(=O)c2cccc(NC(=O)Nc3ccccc3)c2O[C@H]1CN(C)C(=O)Nc1ccc2c(c1)OCO2,-8,-16[16.7 µM]
C[C@@H]1CN([C@@H](C)CO)C(=O)c2cc(NC(=O)C3CCCCC3)ccc2O[C@@H](C)CCCCO[C@@H]1CN(C)C(=O)C1CCCCC1,9,-22[16.7 µM]
Cc1noc(C)c1NC(=O)N(C)C[C@@H]1Oc2ccc(NC(=O)CCC(F)(F)F)cc2CC(=O)N([C@H](C)CO)C[C@@H]1C,25,19[16.7 µM]
C[C@@H]1CN([C@H](C)CO)S(=O)(=O)c2ccc(C#Cc3cccnc3)cc2O[C@@H]1CN(C)C,0,-8[16.7 µM]
O=C1O[C@@H](c2ccccc2)[C@@H](c2ccccc2)N2[C@@H](c3ccc(O)cc3)[C@]3(C(=O)Nc4ccc(C#CC5(O)CCCCCC5)cc43)[C@@H](C(=O)N3CCCCCCC3)[C@H]12,13,13[16.7 µM]
C[C@@H]1CCCCO[C@H](CN(C)S(=O)(=O)c2cn(C)cn2)[C@@H](C)CN([C@@H](C)CO)C(=O)c2cc(NS(=O)(=O)c3cn(C)cn3)ccc2O1,13,12[16.7 µM]
CNC(=O)C[C@@H]1CC[C@@H]2[C@@H](COc3ccc(NC(=O)Nc4c(C)noc4C)cc3C(=O)N2C)O1,-9,-21[16.7 µM]
CO[C@H]1CN(C)C(=O)c2ccc(NC(=O)C3CCC3)cc2OC[C@H](C)N(C(=O)NC(C)C)C[C@H]1C,-3,0[16.7 µM]
C[C@@H]1CN([C@H](C)CO)C(=O)CCCn2nncc2CO[C@@H]1CN(C)Cc1ccc2c(c1)OCCN2C,-7,5[16.7 µM]
Cn1cnc(S(=O)(=O)N[C@H]2CC[C@@H](CC(=O)Nc3ccc(-c4ccccc4)cc3)O[C@@H]2CO)c1,-11,-4[16.7 µM]
CC(=O)N(C)C[C@@H]1Oc2cc(C#Cc3ccccn3)ccc2S(=O)(=O)N([C@H](C)CO)C[C@@H]1C,9,1[16.7 µM]
CN1C(=O)c2cc(NC(=O)c3cc(F)cc(F)c3)ccc2OC[C@@H]2O[C@@H](CC(=O)O)CC[C@@H]21,-6,1[16.7 µM]
CNC[C@H]1Oc2ccc(NS(=O)(=O)c3c(C)noc3C)cc2CC(=O)N([C@@H](C)CO)C[C@H]1C,4,16[16.7 µM]
O=C(CCN1CCCCC1)N[C@@H]1CC[C@@H](CCn2cc(-c3ccc(F)cc3)nn2)O[C@H]1CO,-3,2[16.7 µM]
O=C(C[C@H]1CC[C@H](NC(=O)C2CC2)[C@H](CO)O1)NCC1CC1,-4,-8[16.7 µM]
CNC[C@@H]1Oc2ccc(NC(=O)Nc3ccc4c(c3)OCO4)cc2CC(=O)N([C@@H](C)CO)C[C@@H]1C,8,-9[16.7 µM]
Cc1nn(C)cc1NC(=O)C[C@@H]1CC[C@H]2[C@@H](COc3ccc(NC(=O)C(C)C)cc3C(=O)N2C)O1,1,-19[16.7 µM]
O=C(C[C@H]1C=C[C@H](NC(=O)C2CCC2)[C@@H](CO)O1)NCc1ccncc1,6,-8[16.7 µM]
C[C@H](CO)N1C[C@H](C)[C@H](CN(C)S(=O)(=O)c2ccc(F)cc2)Oc2ccc(NC(=O)CCCCCC(=O)Nc3ccccc3N)cc2CC1=O,-11,31[16.7 µM]
O=C(Nc1ccc2c(c1)[C@H]1C[C@H](CC(=O)N3CCCCC3)O[C@H](CO)[C@H]1O2)c1cccnc1,5,13[16.7 µM]
COc1ccc(CN(C)C[C@H]2OCCCC[C@@H](C)Oc3ccc(NC(=O)Nc4ccc(OC)cc4)cc3C(=O)N([C@H](C)CO)C[C@@H]2C)cc1,-2,30[16.7 µM]
C[C@H]1CN([C@@H](C)CO)S(=O)(=O)c2ccc(C3=CCCCC3)cc2O[C@@H]1CN(C)C(=O)CN(C)C,22,3[16.7 µM]
CC(C)NC(=O)Nc1cccc2c1O[C@@H](CN(C)C(=O)Nc1ccc(C(F)(F)F)cc1)[C@@H](C)CN([C@H](C)CO)C2=O,17,3[16.7 µM]
Cc1ccc(S(=O)(=O)N(C)C[C@@H]2Oc3ccc(NS(C)(=O)=O)cc3CC(=O)N([C@H](C)CO)C[C@H]2C)cc1,-6,-9[16.7 µM]
C[C@H](CO)N1C[C@H](C)[C@H](CN(C)C(=O)CN(C)C)Oc2ncc(/C=C/c3ccccc3)cc2C1=O,1,9[16.7 µM]
CO[C@@H]1CN(C)C(=O)c2ccc(NS(=O)(=O)c3ccc(C)cc3)cc2OC[C@@H](C)N(C)C[C@H]1C,8,-1[16.7 µM]
O=C(N[C@@H]1CC[C@H](CCn2cc(C3CCCCC3)nn2)O[C@@H]1CO)c1cccnc1,8,6[16.7 µM]
C[C@H](CO)N1C[C@H](C)[C@@H](CN(C)Cc2ccc(C(=O)O)cc2)Oc2c(NC(=O)c3ccc(-c4nccs4)cc3)cccc2C1=O,6,21[16.7 µM]
Cc1ccc(S(=O)(=O)N(C)C[C@@H]2Oc3c(NC(=O)C4CCCCC4)cccc3C(=O)N([C@H](C)CO)C[C@@H]2C)cc1,36,-28[16.7 µM]
COCC(=O)Nc1ccc2c(c1)C(=O)N(C)C[C@H](OC)[C@H](C)CN(C(=O)c1ccccc1F)[C@@H](C)CO2,-7,3[16.7 µM]
C[C@@H]1CN([C@H](C)CO)C(=O)c2cc(NS(=O)(=O)c3ccc(F)cc3)ccc2O[C@@H](C)CCCCO[C@H]1CN(C)Cc1ccc(Cl)c(Cl)c1,15,41[16.7 µM]
C[C@H]1CN([C@@H](C)CO)C(=O)c2cc(-c3ccc(F)cc3)cnc2O[C@H]1CN(C)C(=O)c1cccnc1,-2,-3[16.7 µM]
O=C(Nc1ccc(Cl)cc1)N[C@@H]1CC[C@H](CCNS(=O)(=O)c2ccccc2F)O[C@H]1CO,12,8[16.7 µM]
CN(C)CC(=O)N[C@H]1CC[C@@H](CCNC(=O)C2CCC2)O[C@H]1CO,-3,-4[16.7 µM]
Cc1ccc(S(=O)(=O)N(C)C[C@H]2Oc3ccc(NC(=O)Nc4cccc5ccccc45)cc3CC(=O)N([C@H](C)CO)C[C@@H]2C)cc1,1,10[16.7 µM]
COCC(=O)Nc1ccc2c(c1)C(=O)N(C)[C@@H]1CC[C@H](CC(=O)NCc3ccccc3F)O[C@@H]1CO2,10,6[16.7 µM]
O=S(=O)(N[C@H]1CC[C@H](CCn2cc(C3(O)CCCC3)nn2)O[C@H]1CO)c1ccc(F)cc1,-4,1[16.7 µM]
C[C@@H]1CN([C@H](C)CO)C(=O)c2cc(-c3ccccc3)cnc2O[C@H]1CN(C)C(=O)Nc1ccccc1F,-2,-12[16.7 µM]
CCCNC(=O)N(C)C[C@@H]1Oc2ncc(-c3ccncc3)cc2C(=O)N([C@@H](C)CO)C[C@H]1C,35,3[16.7 µM]
O=C(C[C@H]1C=C[C@@H](NC(=O)Nc2cc(F)ccc2F)[C@@H](CO)O1)NCCCN1CCOCC1,3,-1[16.7 µM]
C[C@@H]1CN([C@@H](C)CO)C(=O)c2cccc(NC(=O)C3CCOCC3)c2O[C@@H]1CN(C)S(C)(=O)=O,-6,-38[16.7 µM]
C[C@@H]1CN([C@@H](C)CO)C(=O)Cc2cc(NC(=O)Cc3ccccc3)ccc2O[C@H]1CN(C)S(=O)(=O)c1cn(C)cn1,2,16[16.7 µM]
C[C@@H]1CN([C@@H](C)CO)S(=O)(=O)c2ccc(-c3ccc(F)cc3)cc2O[C@H]1CN(C)C(=O)c1ccccc1F,4,6[16.7 µM]
O=C(Cc1ccncc1)Nc1ccc2c(c1)[C@@H]1C[C@@H](CC(=O)N3CCCCC3)O[C@H](CO)[C@@H]1O2,-13,-16[16.7 µM]
CC(=O)N(C)C[C@@H]1Oc2ncc(C3=CCCC3)cc2C(=O)N([C@H](C)CO)C[C@@H]1C,-13,-1[16.7 µM]
C[C@@H]1CN([C@H](C)CO)C(=O)c2cc(NC(=O)Cc3ccccc3)ccc2O[C@@H](C)CCCCO[C@@H]1CN(C)Cc1ccccc1,3,-9[16.7 µM]
C[C@@H]1CN([C@H](C)CO)C(=O)c2cc(-c3cccc(C#N)c3)cnc2O[C@H]1CN(C)Cc1ccc(F)cc1,-4,-5[16.7 µM]
CC(C)NC(=O)Nc1cccc2c1O[C@@H](CN(C)C(=O)Nc1ccccc1)[C@@H](C)CN([C@@H](C)CO)C2=O,22,-8[16.7 µM]
C[C@@H]1CN([C@H](C)CO)C(=O)c2cc(-c3cccnc3)cnc2O[C@H]1CN(C)C(=O)C1CCOCC1,-2,5[16.7 µM]
COc1ccc(CN(C)C[C@H]2Oc3ccc(NC(=O)CCN4CCOCC4)cc3C(=O)N([C@H](C)CO)C[C@@H]2C)cc1,-16,6[16.7 µM]
COc1ccc(C(=O)Nc2ccc3c(c2)C(=O)N(C)C[C@H](OC)[C@H](C)CN[C@@H](C)CO3)cc1,-2,2[16.7 µM]
CN(C)C(=O)C[C@@H]1C=C[C@@H](NC(=O)Nc2cccc(F)c2)[C@@H](CO)O1,-8,-4[16.7 µM]
CC(C)CC#Cc1cnc2c(c1)C(=O)N([C@@H](C)CO)C[C@@H](C)[C@@H](CN(C)Cc1ccccn1)O2,-11,-3[16.7 µM]
COc1cccc(NC(=O)N[C@@H]2CC[C@@H](CC(=O)NCc3ccncn3)O[C@H]2CO)c1,-5,0[16.7 µM]

# Screening results deposited in PubChem BioAssay by Broad Institute.

# Not all compounds are listed (hit frequency here may not be typical).
